High-throughput results as filed in PubChem.
NPYLR7 agonist: mosquito NPYLR7 agonism. HEK293T NPYLR7/Galpha15, GCaMP6s calcium fluorescence. activation, % at 10 µM. 0.15% of 270,000 active. AID 1259423; in the data active = activation above about 40%;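 note: 0% = vehicle and 100% = reference agonist at the receptor; some compounds past the cut are filed as inactive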
NPYLR7 agonist max-min: second read-out of NPYLR7 agonist, no call of its own (marks repeat the call); activation, %; measured here: Max-Min RFU normalised activation; some inactives read as strong as hits;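 span of the calcium signal over five minutes; 0% = vehicle and 100% = native peptide agonist; compound fluorescence can raise it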
The depositor's hits bear a star; & = joins results of further samples.

mol | NPYLR7 agonist | NPYLR7 agonist max-min
CN(Cc1cnn(C)c1)C(=O)CNC(=O)c1cccc(Br)c1 | 2.2 | -1.1
COc1ccc(-c2ccc(CCC(=O)N3CC=C(c4ccccc4)CC3)n2-c2ccc(SC)cc2)cc1 | 3.3 | 0.2
CN(Cc1ccccc1)Cc1nc2c(c(=O)n(C)c(=O)n2C)n1CCN1CCOCC1 | 7.9 | 6.4
O=S(=O)(c1ccc(Cl)cc1)c1ccc(C(F)(F)F)cn1 | 7.1 | 2.6
c1csc(C2=Nn3c(nnc3-c3ccc4c(c3)OCO4)SC2)c1 | 8.5 | 7.7
COC(=O)c1ccc(-c2noc(CN3CC4C[C@@H]5CC3C[C@H](C4)C5)n2)cc1 | 14.6 | 5.0
O=C1CCC2(CCC(=O)NC2=O)C(=O)N1 | -6.0 | -4.0
Cc1c(C(=O)N(C)CC2(C)CCN(C)C2)cnn1-c1ccccn1 (stereo not given) | 28.0 | 21.8
CCNc1cnn(-c2ccc(C(F)(F)F)cn2)c(=O)c1Cl | -0.2 | 0.3
COc1cccc(C2NC(=O)NC(C)=C2C(=O)OCCSC)c1 (stereo not given) | -3.4 | -5.5
Cc1cc(C)cc(C(=O)OCC(=O)NCC(C)C)c1 | -7.1 | -7.0
Cc1ccc(-c2n[nH]c(=S)n2N=Cc2ccccc2)cc1 | -0.5 | -4.1
Cn1cc(CCNC(=O)c2cc3c(s2)CCCCCC3)cn1 | -0.1 | -1.7
N#CC(=C(O)CSCC(=O)O)c1nc2ccccc2s1 | 0.5 | 6.5
NC1=NC(=O)/C(=C\c2cccc(Br)c2)S1 | -2.8 | -6.9
CCOC(=O)c1c(NC(=O)C(C)C)sc2c1CCC2 | 1.9 | 2.3
CCOC(=O)[C@@H]1CN2CCN(CC3CC3)C[C@@H]2[C@H]1c1ccccc1 | -3.0 | 2.4
C=C1C2(C(=O)NCc3ccc(C)cc3)CCC(C2)C1(C)C (stereo not given) | -4.3 | -6.3
Cc1[nH]n(-c2cccc(Cl)c2)c(=O)c1C1=C(N2CCOCC2)C(=O)N(Cc2ccc(F)cc2)C1=O | 11.0 | 8.6
CCOC(=O)C1=C(C)N=c2s/c(=C/c3ccc(N(C)C)cc3)c(=O)n2C1c1ccc(OC(C)=O)cc1 (stereo not given) | -3.6 | -6.7
COc1ccccc1C1=NN(C(=O)CN2CCC3(CC2)OCCO3)C(c2cc(C)ccc2C)C1 (stereo not given) | 0.5 | 9.1
COCCN(Cc1cccs1)C(=O)c1ccc(F)c(C)c1 | 18.3 | 8.5
CCC(NCc1ccccc1OCCCN1CCN(C)CC1)c1ccnn1C (stereo not given) | 2.6 | -0.6
CCN1CCc2c(sc(NC(=O)c3ccc(C(C)=O)cc3)c2-c2nc3ccccc3s2)C1 | 20.0 | 15.1
CCCN(CC1CC1)C(=O)Nc1cccc(NC(=O)OC)c1 | -1.2 | -5.1
COc1ccc(CNC(=O)c2ccc(-c3ccc(F)cc3)s2)cc1 | -1.7 | 6.5
CCCc1ccc(C(=O)N2CCC(n3c(-c4ccccc4)nc4ccc(F)cc43)CC2)cc1 | 21.7 | 9.3
Cc1cc(C(=O)N(Cc2cccnc2)c2nc3c(F)cc(F)cc3s2)on1 | 7.3 | 7.4
Cc1ccc(OCC2CN(C(=O)COc3ccc(F)cc3)CCO2)cc1 (stereo not given) | -3.1 | -5.3
Cc1ccc(-c2nc3c(c(SCC(N)=O)n2)Cc2cccc(C)c2O3)cc1 | -5.9 | -9.1
CCN1CC(n2cnc(-c3ccccc3)c2-c2cnn3cccnc23)CC1=O (stereo not given) | -2.1 | -11.8
Cc1ccc(-c2ccc(OCCNS(=O)(=O)c3ccccc3C(F)(F)F)nn2)cc1 | -2.2 | -11.5
COc1ccc(Cl)cc1CN1C(=O)CON=C1c1ncccc1C | -0.2 | -3.8
N#CC(=Cc1cc2c(cc1Br)OCO2)c1ccccn1 | -7.3 | 1.4
CCn1nc(CC(C)C)cc1C(=O)N1CCC2(CC1)NCCNC2=O | 1.2 | 15.2
Cc1cc2c(cc1-c1nccn1CCc1nc(-c3cccnc3)no1)OCO2 | -2.1 | -4.9
COc1cc(NC(=O)N(Cc2ccco2)CC2CCCO2)cc(OC)c1 (stereo not given) | -4.2 | -7.4
CC(C(=O)O)n1c(C2CCC2)n[nH]c1=O (stereo not given) | 3.7 | 0.1
Cc1ccc2[nH]c3c(=O)n(CC(=O)Nc4ccccc4C)cnc3c2c1 | -0.6 | -5.2
Cn1cc(Cl)c(C(=O)Nc2nccs2)n1 | -0.7 | -1.3
Cc1ccc(NCC(=O)NNC(=O)c2ccsc2)cc1 | 2.0 | 2.0
Cc1ccccc1CN1CCCN(CC(O)c2ccccc2F)CC1 (stereo not given) | 8.8 | 6.3
COC(=O)c1cc(-c2ccc(OC)cc2)on1 | -3.7 | -3.2
CN1C(=O)CC(C(=O)Nc2ccc(C(=O)O)cc2)SC1=Nc1ccc(Cl)cc1 (stereo not given) | 0.3 | -2.2
Cc1ccc(CCC2CCN(C(=O)c3cccc4cn[nH]c34)CC2)cc1 | 2.5 | 1.7
O=C(Nc1ccc2c(c1)OCO2)C1CC1 | 12.6 | 7.6
CCOc1ccc(-c2ccc(OCCNC(=O)CC3CCCC3)nn2)cc1 | 0.5 | -0.4
CCCn1c(C)cc(C(=O)COc2cccc3c2CCC3=O)c1C | -2.0 | -5.2
Cc1cccc2c1[nH]c(=O)n1nc(-c3ccccc3)c(=O)nc21 | -1.4 | -3.3
CC(NS(=O)(=O)c1ccc2[nH]c(=O)ccc2c1)c1cccc(Cl)c1 (stereo not given) | -0.3 | 1.5

Another view of 19 compounds above.
Every second line gives: NPYLR7 agonist, NPYLR7 agonist max-min
- Cc1ccc(OCC2CN(C(=O)COc3ccc(F)cc3)CCO2)cc1 (stereo not given)
    -3.1, -5.3
- Cc1ccc(-c2nc3c(c(SCC(N)=O)n2)Cc2cccc(C)c2O3)cc1
    -5.9, -9.1
- CCN1CC(n2cnc(-c3ccccc3)c2-c2cnn3cccnc23)CC1=O (stereo not given)
    -2.1, -11.8
- Cc1ccc(-c2ccc(OCCNS(=O)(=O)c3ccccc3C(F)(F)F)nn2)cc1
    -2.2, -11.5
- COc1ccc(Cl)cc1CN1C(=O)CON=C1c1ncccc1C
    -0.2, -3.8
- N#CC(=Cc1cc2c(cc1Br)OCO2)c1ccccn1
    -7.3, 1.4
- CCn1nc(CC(C)C)cc1C(=O)N1CCC2(CC1)NCCNC2=O
    1.2, 15.2
- Cc1cc2c(cc1-c1nccn1CCc1nc(-c3cccnc3)no1)OCO2
    -2.1, -4.9
- COc1cc(NC(=O)N(Cc2ccco2)CC2CCCO2)cc(OC)c1 (stereo not given)
    -4.2, -7.4
- CC(C(=O)O)n1c(C2CCC2)n[nH]c1=O (stereo not given)
    3.7, 0.1
- Cc1ccc2[nH]c3c(=O)n(CC(=O)Nc4ccccc4C)cnc3c2c1
    -0.6, -5.2
- Cn1cc(Cl)c(C(=O)Nc2nccs2)n1
    -0.7, -1.3
- Cc1ccc(NCC(=O)NNC(=O)c2ccsc2)cc1
    2.0, 2.0
- Cc1ccccc1CN1CCCN(CC(O)c2ccccc2F)CC1 (stereo not given)
    8.8, 6.3
- COC(=O)c1cc(-c2ccc(OC)cc2)on1
    -3.7, -3.2
- CN1C(=O)CC(C(=O)Nc2ccc(C(=O)O)cc2)SC1=Nc1ccc(Cl)cc1 (stereo not given)
    0.3, -2.2
- Cc1ccc(CCC2CCN(C(=O)c3cccc4cn[nH]c34)CC2)cc1
    2.5, 1.7
- O=C(Nc1ccc2c(c1)OCO2)C1CC1
    12.6, 7.6
- CCOc1ccc(-c2ccc(OCCNC(=O)CC3CCCC3)nn2)cc1
    0.5, -0.4

Additional records
mol | NPYLR7 agonist | NPYLR7 agonist max-min
Cc1cc2c(ccc3nonc32)o1 | 1.3 | 0.2
CCOc1cccc2cc(C(N)=O)c(=Nc3ccccc3F)oc12 | -9.3 | -13.5
CN1C[C@@H](N)C[C@H]1C(=O)NCCCn1ccnc1 | 1.8 | -0.8
CC(C)(C)c1[nH]ncc1CNCc1ccccc1-n1ccnc1 | 1.5 | 1.0
COCCn1c(-c2ccccn2)nc2cc(NC(C)=O)cc(C(=O)NCC3CC4C=CC3C43CC3)c21 (stereo not given) | 21.9 | 14.5
Cc1nc(Cc2nnc(SCC(=O)c3cc(C)n(Cc4ccco4)c3C)o2)cs1 | 11.0 | 6.1
C=CCCn1c(C(=O)N2CCN(C(=O)Nc3ccc(C#N)cc3)C(C)C2)cc2ccsc21 (stereo not given) | 16.2 | 14.2
Cc1cnccc1NCCNc1nc(-c2cccnc2)nc2c1cnn2C | 6.5 | 4.8
Cc1cc(CC(C)NC(=O)c2cn(Cc3ccc(F)cc3)nn2)n[nH]1 (stereo not given) | -5.0 | -11.6
Cc1ccc(-c2c(C)sc3nc(CN4CCOCC4)[nH]c(=O)c23)cc1 | 0.8&1.3 | 1.1&0.0

Some values from the results shown:
`Cc1cc(CC(C)NC(=O)c2cn(Cc3ccc(F)cc3)nn2)n[nH]1` (stereo not given) in NPYLR7 agonist max-min reads -11.6
`COCCn1c(-c2ccccn2)nc2cc(NC(C)=O)cc(C(=O)NCC3CC4C=CC3C43CC3)c21` (stereo not given) in NPYLR7 agonist reads 21.9

The results go on:
mol | NPYLR7 agonist | NPYLR7 agonist max-min
Cc1ccccc1CN1C(=O)C(C)ON=C1c1ccc(N(C)C)cc1 (stereo not given) | 10.2 | 2.7
Cc1cc([N+](=O)[O-])cc(S(=O)(=O)NCCCN2CCC(C)CC2)c1C | 3.5 | 10.9
CC1CN(Cc2nc3c(c(=O)n(C)c(=O)n3C)n2CCCO)CC(C)O1 (stereo not given) | 0.9 | 18.7
COc1cccc(C(=O)N(CCN2CCOCC2)Cc2cc(Cl)ccc2OCc2nc(CO)cs2)c1 | -0.3 | 0.0
COc1cccc(N2CC(C(=O)NCc3cc(-c4ccccc4F)on3)CC2=O)c1 (stereo not given) | 4.7 | 4.2
CC(C)c1nccn1C(C)Cn1cncn1 (stereo not given) | -0.8 | -3.1
COC(=O)c1c(NC(=O)CSc2ncnc3sc4c(c23)CCC4)sc2c1CCC2 | -3.7 | -5.3
O=C(N[C@@H]1CCCCC1NC(=O)C1CCN(C(=O)C2C[C@H]2c2ccccc2)CC1)c1ccccc1 (stereo not given in full) | -10.9 | -9.5
CN(C)c1ccc(S(=O)(=O)N(C)C)cc1NS(=O)(=O)c1ccc2c(c1)OCCO2 | 8.7 | 14.5
C#CCN(C(=O)Nc1cc(C#N)cn1C(C)(C)C)C1CCc2ccccc21 (stereo not given) | 5.1 | 2.7
Cc1ncc(C(C)C)c(N2CCN(Cc3c(C)nn(C)c3Cl)CC2)n1 | 9.6 | 1.9
C=C(C)CNC(=S)Nc1cccc(N)n1 | -3.2 | -3.4
Cc1ccccc1C1=NOC(CN(Cc2ccccc2Cl)C(=O)CC(C)C)C1 (stereo not given) | 22.0 | 18.5
O=C1OC(c2ccco2)=N/C1=C\c1coc2ccccc2c1=O | -3.0 | -9.5
CCCCOC(=O)N1CCC(=O)N(CCC#N)C[C@H]2CN(C)c3ccccc3[C@@H]21 | 2.9 | 6.9
CN(C)C(C(=O)NCc1ccccc1-n1cccn1)c1ccc(F)cc1 (stereo not given) | 26.1 | 11.5
CC(C)CN(Cc1cnn(C)c1)C(=O)c1ncccc1C(=O)c1ccccc1 | -4.2 | -5.3
CC(C)(Oc1ccc(Cl)cc1)C(=O)Nc1c2c(nn1CC(=O)NCC1CCCO1)CSC2 (stereo not given) | -5.1 | -4.1
COCc1ccc(C(=O)OC2(C3CCOC3)CC2)cc1 (stereo not given) | -9.4 | -12.6
Cc1ccc2c(n1)O[C@@H](COCc1ccccc1)CN(Cc1cccs1)C2=O | 7.7 | 12.8
COc1ccc(CCn2nc(C(=O)NC3CC3)c3c2CCN(C(=O)c2ccc(F)cc2Cl)C3)cc1 | -0.8 | -7.4
CCOC(=O)c1c(-c2ccc(C)o2)csc1NC(=S)NC(=O)N(C)C | -1.7 | -2.5
CC(=O)Nc1nc(SCC(=O)N2CC(C)OC(C)C2)[nH]c(=O)c1NC(=O)c1ccccc1 (stereo not given) | -0.9 | -1.4
CC(Oc1ccccc1)C(=O)Nn1cnc2c(cnn2-c2ccc(F)cc2)c1=O (stereo not given) | 4.0 | 0.7
CCc1nccn1CC(=O)N1CCCC(c2[nH]ncc2-c2ccc(C)cc2)C1 (stereo not given) | 2.1 | -3.2
Cn1c(N)c(C#N)c2c(c1=S)CCCC2 | 3.9 | 5.3
COc1cc(OC)cc(C(=O)N(Cc2ccc(F)cc2)Cc2nc3cc(Cl)ccc3o2)c1 | 2.2 | -3.7
COCCC(=O)N1CCCC(Nc2ccc(C(C)C)cc2)C1 (stereo not given) | -5.0 | -7.7
Cc1ccc(S(=O)(=O)NCc2nnnn2-c2ccccc2)cc1 | -3.1 | -3.9
Cc1ccc(Cl)c(C(=O)N2CCOC(COCc3ccccc3F)C2)c1 (stereo not given) | 1.5 | -1.3
CC(C)c1noc(CN(C)c2ccc(-c3nc(C(C)C)no3)cn2)n1 | -0.6 | -2.4
Cc1cc(N2C[C@@H]3[C@H](C2)[C@H]2CC[C@@H]3O2)nc(-c2ccccc2)n1 | 7.5 | 1.0
CCc1cc(CN(C)CC2=CC[C@H]3C[C@@H]2C3(C)C)on1 | 14.8 | 2.8
Cc1cc(SCC(=O)NCc2cnn(C)c2)c(C)cc1Br | 3.6 | -0.1
COc1cccc(-c2nnc3ccc(OCCNC(=O)c4cccc(C)c4)nn23)c1 | -4.4 | -8.2

This is a subset; rates above refer to the full screens.
